# From PubChem BioAssay
# PrP UTR inh: inhibition of PrP 5' UTR reporter expression; 0.35% of 340,000 active; inhibition, % (concentration not given with the values); cell-based PrP 5' UTR mRNA reporter, plate reader;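 active means every replicate at 50% or more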;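 further: 0 = median of the neutral control wells; tested in H4 reporter cells; numbers are from one replicate; inactives centre near -14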
# Mtb hypoxia rep: Mtb hypoxia fluorescent reporter inhibition. fluorescence inhibition, % (no concentration beside the values). M. tuberculosis hypoxia-regulated fluorescent reporter, fluorescence. 0.1% of 300,000 active;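 active means 35 to 45% if threefold the growth effect, above 45% if 1.5-fold the growth effect; inactive means the rest, general growth blockers included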;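 further: wells of about 50 µL received 100 nL stock; 0% = vehicle wells and 100% = reference inhibitor wells; whole bacteria with a GFP reporter of the hypoxia response; strong numbers were not always called active; many hits fall short of the cut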
# RN4220 kill: kills Staphylococcus aureus RN4220; 0.33% of 330,000 active; S. aureus RN4220 growth, OD600, 16 h; inhibition, % (concentration not given with the values);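 active means z-score of -3 or lower and OD600 up to 0.18 on both plates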;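 further: plate controls were untreated cells for no effect and reference antibiotic for full effect; stock transfer was 100 nL into about 80 µL; one replicate is shown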
# ugtP null kill: compounds lethal to S. aureus RN4220 ugtP deletion mutant; AID 1259309; OD600 growth, 16 h; some inactives read as strong as hits; 0.54% of 330,000 active; growth inhibition, % (no concentration beside the values);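 active means z-score under -3 and OD600 up to 0.15 on both plates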;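 further: plate controls were untreated wells for no effect and antibiotic for full effect; wells of about 80 µL received 100 nL stock; the first replicate is given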
# BJeLR lethal: kills HRASV12-expressing BJeLR cells; inhibition, % (no concentration beside the values); 0.17% of 300,000 active; AID 1554; BJeLR (HRASV12) viability, CellTiter-Glo ATP luminescence, 48 h; reference of the scale not given here;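 active means replicate mean above 50%; inconclusive means above 50% but judged a plate artefact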;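 further: 50 nL library stock added to about 25 µL; numbers are from one replicate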
# Bead autofluor: flagged as autofluorescent in microsphere protease counterscreen; compound autofluorescence counterscreen, microsphere flow cytometry; hits give high values; fluorescence intensity (no concentration beside the values); 3.1% of 360,000 active;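 active means at least 3 SD above the mean of all compounds, about 16000 in these data; inconclusive means too few beads counted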;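 further: 100 nL of 1 mM stock went into each well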
# Mtb hypoxia rep growth: second read-out of Mtb hypoxia rep, no call of its own (marks repeat the call); growth inhibition, %; measured here: M. tuberculosis growth (absorbance);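 0% = vehicle and 100% = reference antibiotic; read after six days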
# * marks the source's active call; other numbers are inactive results; ? = inconclusive; · = not tested or not shown.
SMILES,PrP UTR inh,Mtb hypoxia rep,Mtb hypoxia rep growth,RN4220 kill,ugtP null kill,BJeLR lethal,Bead autofluor
COc1ccc(C2C3C(=O)N(C(C)(C)C)C(=O)C3[C@]3(Cc4ccc(Cl)cc4)C(=O)N(c4ccc(C)cc4)C(=O)N23)cc1 (some centres undefined),·,-4.2,7.6,-4.5,-5.0,·,·
Clc1ccc(-c2c[n+](Cc3cccc(Cl)c3)c3n2CCC3)cc1,-58.9,9.2,8.0,-6.5,-19.9,11.7,2571
O=c1c2ccccc2nc(-c2ccc(Cl)cc2)n1C1CCS(=O)(=O)C1 (centres undefined),-17.3,2.8,0.6,4.4,7.3,1.0,?
COc1cccc(NC(=O)CN(C)CC(=O)Nc2ccc(C)cc2Cl)c1,-1.8,10.1,10.3,2.2,7.4,1.5,3977
O=C(NNC(=O)C1CCCO1)c1ccc([N+](=O)[O-])cc1 (centres undefined),-19.7,10.2,-0.3,5.6,3.8,-8.8,3431
CCN(CCO)Cc1csc2ccc(Br)cc12,-26.7,·,·,2.5,-7.8,0.5,4624
O=Cc1ccc(-c2cccc([N+](=O)[O-])c2)o1,-35.2,-2.8,10.7,4.6,0.0,7.1,6046
COc1ccc(S(=O)(=O)N2CCC(C(=O)Nc3nnc(CCN4CCCCC4)s3)CC2)cc1,-21.3,-0.1,6.5,4.4,0.2,·,10937
CCN1CCCC1CNCC(O)COc1ccc(C(C)(C)C)cc1C (centres undefined),-18.8,0.8,9.4,6.1,0.1,-8.4,3999
Cc1ccc(S(=O)(=O)N2CCC[C@H]2C(=O)NCc2ccccc2Cl)cc1,-2.8,3.9,13.0,1.6,2.5,·,4348
CC(C(=O)N1CCCc2ccccc21)N1CCN(c2ccccn2)CC1 (centres undefined),-29.5,-5.0,1.5,1.8,-10.7,-1.1,6089
CC(=O)c1ccc(N2CCN(C(=O)c3ccc4c(c3)OCO4)CC2)cc1,-5.7,4.1,-2.4,5.5,12.6,-23.3,4749
O=C(NCc1ccc2c(c1)OCO2)c1cc2c(s1)CSC2,-7.9,3.7,13.2,-11.6,-5.4,-17.9,6351
O=C(CCc1c[nH]c2ccccc12)N1CCN(S(=O)(=O)c2ccc(F)cc2)CC1,-21.8,8.1,5.4,4.4,1.2,·,5703
COc1ccc(C(=O)NCCCN2CCOCC2)cc1S(=O)(=O)N1CCCc2ccccc21,-6.2,15.8,7.1,3.0,-65.0,0.5,3818
COc1cc2c(cc1OC)CN(Cc1cc(=O)oc3c(C)c(C)ccc13)CC2,-28.4,9.6,5.6,7.1,-1.5,-3.7,3816
Cn1c(=O)n(-c2ccccc2)c(=O)c2c3c(sc21)COC(C)(C)C3,-16.4,·,·,0.7,-2.5,-4.2,2917
Cc1oc(-c2cccc3ccccc23)nc1CN1CCC[C@H]1CO,-17.6,14.3,16.0,-1.0,9.0,-1.2,5271
COc1cccc(C=NNC(=O)c2c(C)nc3ccc(Br)cn23)c1,·,2.8,-0.5,-2.9,2.5,·,·
C#CC[N+]1(C)C2CCC1CC(O)C2 (centres undefined),3.6,12.4,10.7,-1.2,6.2,1.2,4238

# 2 records picked at random from the list so far:
SMILES,PrP UTR inh,Mtb hypoxia rep,Mtb hypoxia rep growth,RN4220 kill,ugtP null kill,BJeLR lethal,Bead autofluor
COc1cc2c(cc1OC)CN(Cc1cc(=O)oc3c(C)c(C)ccc13)CC2,-28.4,9.6,5.6,7.1,-1.5,-3.7,3816
CC(C(=O)N1CCCc2ccccc21)N1CCN(c2ccccn2)CC1 (centres undefined),-29.5,-5.0,1.5,1.8,-10.7,-1.1,6089

# Following part
SMILES,PrP UTR inh,Mtb hypoxia rep,Mtb hypoxia rep growth,RN4220 kill,ugtP null kill,BJeLR lethal,Bead autofluor
CCc1nc(N2CCN(C(C)=O)CC2)c2c3c(sc2n1)CCCC3,-18.3,9.8,0.0,8.6,7.7,1.2,3259
Cc1n[nH]c(=S)n1N=Cc1ccc(OCc2ccc(Cl)cc2Cl)cc1,·,6.8,-4.7,1.9,-12.8,·,·
COc1cc(C(=O)NCCc2nc3ccccc3n2C)cc(OC)c1OC,-7.5,9.4,2.4,-0.8,7.6,-11.8,7188
CC(C)(O)C(=O)N/N=C\c1ccc(OC/C=C/c2ccccc2)cc1,-22.0,·,·,·,·,1.3,5661
c1ccc(Nc2cccc(Nc3ccccc3)n2)cc1,-31.7,·,·,-10.7,7.4,-3.8,3520
COC(=O)CN1C(=S)N(C)C(=O)/C1=C/c1cccs1,-9.4,-6.6,14.7,-1.8,4.4,-3.7,2465
COc1ccc(CCNC(=S)NC(=O)c2ccccc2)cc1C,-13.4,1.3,-11.4,61.7,4.2,3.9,4149
COc1cc(NC(=O)CSCc2ccc(Cl)cc2)c(C(=O)O)cc1OC,-30.6,10.2,6.1,2.4,7.1,-4.5,3359
Cc1cccc(-n2cnc(C(=O)NNC(=S)Nc3ccccc3)c2)n1,-20.5,6.7,2.0,5.1,2.8,12.9,4433
Nc1nc(COc2ccc3ccccc3c2)cs1,-75.5,4.7,-6.3,6.8,7.8,-0.7,7332
O=C(NC(Cc1ccccc1)C(=O)N1CCN(c2ccccn2)CC1)c1ccco1 (centres undefined),4.1,-2.5,8.8,1.0,-1.3,7.5,9825
Cc1ccc2nc(NCc3ccc(F)cc3)c3nncn3c2c1,-9.2,-0.5,0.6,3.3,4.6,6.6,4085
Cc1cc(C)n2c(SCC(=O)Nc3cc(C)on3)nnc2n1,-33.1,17.3,1.3,5.1,15.0,5.1,3932
CCN1CCN(C(=O)C2CCN(S(=O)(=O)c3ccc(Br)cc3)CC2)CC1,-8.9,3.9,1.4,1.9,1.4,1.9,5131
CC(C)NS(=O)(=O)c1ccc(OCC(=O)Nc2ccc3c(c2)OCO3)c(Cl)c1,-14.8,·,·,1.0,-0.5,-7.2,2527
CCN(CC)S(=O)(=O)c1ccc(C)c(NC(=S)NC2CCCCC2)c1,-15.3,-7.5,-12.1,2.8,-3.1,11.6,5079
CCCCC(=NCCc1c(C)[nH]c2ccc(OC)cc12)C1=C(O)CC(c2ccccc2)CC1=O (centres undefined),-2.0,-2.3,3.3,-9.0,8.8,25.1,4030
CCN(CC)CCNc1oc(-c2ccccc2)nc1S(=O)(=O)c1ccccc1,-12.3,1.1,2.9,2.0,9.2,·,·
COc1ccc(C(=O)NC(=S)N2CCN(c3ccc([N+](=O)[O-])cc3)CC2)cc1,-8.6,8.6,1.9,4.4,18.7,-5.1,2565
Cc1ccc(S(=O)(=O)NC(=O)Nc2nnc(C)s2)cc1,-7.7,2.3,2.3,-3.3,-6.7,0.0,4107

# Whole records, quoted from the list:
# CC(C)NS(=O)(=O)c1ccc(OCC(=O)Nc2ccc3c(c2)OCO3)c(Cl)c1 across the screens: PrP UTR inh: -14.8; Mtb hypoxia rep: ·; Mtb hypoxia rep growth: ·; RN4220 kill: 1.0; ugtP null kill: -0.5; BJeLR lethal: -7.2; Bead autofluor: 2527
# CCc1nc(N2CCN(C(C)=O)CC2)c2c3c(sc2n1)CCCC3 across the screens: PrP UTR inh: -18.3; Mtb hypoxia rep: 9.8; Mtb hypoxia rep growth: 0.0; RN4220 kill: 8.6; ugtP null kill: 7.7; BJeLR lethal: 1.2; Bead autofluor: 3259
# Cc1ccc(S(=O)(=O)NC(=O)Nc2nnc(C)s2)cc1 across the screens: PrP UTR inh: -7.7; Mtb hypoxia rep: 2.3; Mtb hypoxia rep growth: 2.3; RN4220 kill: -3.3; ugtP null kill: -6.7; BJeLR lethal: 0.0; Bead autofluor: 4107

# Remaining list, next part.
SMILES,PrP UTR inh,Mtb hypoxia rep,Mtb hypoxia rep growth,RN4220 kill,ugtP null kill,BJeLR lethal,Bead autofluor
COc1ccc(N2CCN(C3CCCN(C(=O)CN4CCCC4=O)C3)CC2)cc1 (centres undefined),0.0,6.0,1.5,4.0,4.1,5.7,5791
CCOC(=O)c1sc(Nc2nc(OC)cc(OC)n2)nc1C,·,10.6,7.5,2.0,7.7,2.0,·
O=C1C=C(c2ccc(C(=O)O)cc2)CC(c2ccc3c(c2)OCO3)C1 (centres undefined),·,4.3,5.9,1.5,2.4,·,·
CCCCCCNCC1OCc2ccccc2CO1,-30.3,11.9,-7.3,3.8,-3.2,1.6,2522
O=C(O)c1[nH]c2ccccc2c1C(c1cccc(O)c1)c1c(C(=O)O)[nH]c2ccccc12,-19.3,1.7,9.4,16.7,-2.6,-2.1,3412
COC(=O)[C@H](C)N(Cc1ccc(Cl)c(Cl)c1)S(=O)(=O)CCN1CCN(c2ccccc2)CC1,-2.6,6.1,7.5,2.7,-2.1,·,2775
COc1ccc(OC)c(NC(=O)c2c(NC(=O)CNCc3ccco3)sc3c2CCC3)c1,-6.2,7.6,5.2,-2.7,-16.1,16.3,3318
O=C(N/N=C/c1cccnc1)c1ccc([N+](=O)[O-])cc1Cl,-37.1,·,·,·,·,6.1,9733
O=c1[nH]c2ccccc2nc1-c1ccccc1,-40.6,-5.6,9.7,4.7,16.8,10.0,4364
C=CCn1c(SCn2nnc3ccccc3c2=O)nnc1-c1ccc(Cl)cc1,-33.3,4.8,4.3,0.1,0.4,3.2,15207
Cn1c(=O)c2c(-c3ccccc3F)c3c(nc2n(C)c1=O)-c1ccccc1C3O (centres undefined),-17.4,-1.7,0.5,-6.9,-12.1,7.4,?
Cc1cc(C)n2nc(CNS(=O)(=O)c3cccc([N+](=O)[O-])c3)nc2n1,0.1,2.8,1.0,5.3,5.9,11.6,6415
Cc1ccc(NS(=O)(=O)N(C)C)cc1,-14.9,6.2,2.8,-13.0,-4.6,8.4,3542
CCn1c(C)c(C)c2cc(C(=O)N3CCCC3)ccc21,-15.5,·,·,·,·,6.2,4258
Clc1ccc(OCCCNCc2ccccc2)c(Br)c1,-3.5,-8.5,9.7,-6.1,-33.0,1.5,11832
CCOC(=O)C1CCN(C(=O)CN(c2ccc3c(c2)OCCO3)S(=O)(=O)c2ccccc2)CC1,-5.3,6.9,-2.3,2.2,6.8,9.6,5585
CCOc1ccc(/C(O)=C2/C(=O)C(=O)N(CCCn3ccnc3)C2c2cccs2)cc1Cl (centres undefined),-30.1,8.9,9.7,2.7,2.2,1.4,5583
Cc1ccc(CNS(=O)(=O)c2ccc(C)s2)cc1,-0.6,9.1,-2.1,3.2,8.3,7.8,5733
COC(=O)C1=C(c2cc3ccccc3o2)CC2CCC1N2C(=O)NCc1ccccc1 (centres undefined),·,10.6,12.3,-0.2,8.0,·,·
Cn1cccc1C(=O)NC(=O)COC(=O)CCNS(=O)(=O)c1cccc(C(F)(F)F)c1,-12.9,-3.6,-1.2,9.8,12.0,·,·
COc1ccc(S(=O)(=O)NNC(=O)c2ccc(-n3c(C)ccc3C)cc2)cc1,-11.1,·,·,·,·,-3.2,?
Cc1cc(=O)n2c3ccccc3n(CC(O)CN3CCN(Cc4ccccc4)CC3)c2c1C#N (centres undefined),-8.5,0.8,8.3,2.0,14.0,-5.6,?
COc1ccc(OC)c(NC(=O)CN2CCN(C(=O)c3ccco3)CC2)c1,-13.5,·,·,-1.2,0.8,-9.9,4383
COc1ccc(OCc2cc(C(=O)N3CCC(OC)CC3)no2)c2ccccc12,-45.4,6.3,13.1,5.1,1.7,-8.0,6478
COc1ccc(CCNC(=O)CCc2cn(C)c3ccccc23)c(OC)c1,-9.1,1.3,5.6,3.6,14.2,-1.2,3940
NS(=O)(=O)c1ccc(Nc2nc(-c3cccnc3)cs2)cc1,-9.4,5.5,0.4,1.0,6.6,-2.5,·
O=C(CNC(=O)c1ccc(Cl)cc1)NN=Cc1cccnc1,·,12.2,-0.3,1.0,10.2,·,·
Cn1ccnc1SCC(=O)Nc1ccc(F)c([N+](=O)[O-])c1,-19.4,12.5,17.2,3.3,11.0,-6.8,4568
COCCn1c(SCC(=O)NC(C)c2ccccc2)nc2ccccc21 (centres undefined),-16.2,·,·,·,·,1.9,5486
CCN(C(=O)COC(=O)c1c(C)nn(-c2ccccc2)c1C)C1CCS(=O)(=O)C1 (centres undefined),-26.5,7.1,-1.3,4.8,2.6,5.9,4863
COC(=O)c1ccccc1NC(=O)c1c(Br)cnn1C,-13.2,19.7,9.9,-16.5,5.8,-3.1,2964
O=C1N=c2ccccc2=C1c1sc(=S)n(CC2CCCO2)c1O (centres undefined),-2.0,-6.5,3.8,-3.9,-0.2,-2.8,2562
CCCOc1cc(C)c(S(=O)(=O)N2CCOCC2)cc1C,·,9.8,12.2,7.9,-2.4,6.1,·
CCOc1ccc(S(=O)(=O)N2CN3CCN(C3)C2)cc1,-16.9,16.1,9.9,10.5,7.2,-6.8,3743

# Rows are unselected; 4% or so of the library scored in one or more.
